Mtb H37Rv: Mycobacterium tuberculosis H37Rv growth inhibition, cell based, confirmatory dose response (AID 1949) | most inactive calls were filed without a number and no value below 0 was filed | inhibition, % at 10 µg/mL; hits with a dose series show IC50 in µg/mL | actives 1.6% (n = 100,000);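 active = confirmed in a dose series; inconclusive = about 50% or more but not retested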;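 also: bacteria grown 7 days with compound before Alamar blue readout; 0% = untreated bacteria and 100% = reference antibiotic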
* marks the source's active call; other numbers are inactive results; i = inactive; ? = inconclusive. These rows are one share of the data. The share of hits here may be higher or lower than overall.

SMILES	Mtb H37Rv
COc1ccc(Cl)cc1S(=O)(=O)N1CCN(C(=O)c2ccco2)CC1	0%
COc1ccc(S(=O)(=O)N(CC(=O)Nc2cccnc2)c2cc(C)cc(C)c2)cc1OC	i
COc1ccc(N(CC(=O)N2CCC(Cc3ccccc3)CC2)S(=O)(=O)c2ccc(F)cc2)cc1	1%
O=C1CC2(CCCC2)CC(=O)N1c1cccc(Cl)c1	i
C=CCc1ccc(OCc2ccc(C(=O)Nc3ccc(NC(C)=O)cc3)o2)c(OC)c1	i
CN1CCN(C(=O)Cn2c(=O)n(C)c3ccccc32)CC1	i
CC(=O)c1cccc(NC(=O)COc2ccc(I)cc2)c1	i
Cc1ccc(C)c(NC(=O)c2ccoc2C)c1	i
Cc1ccc(S(=O)(=O)Nc2ccc(NC(=O)Nc3ccccc3)cc2)cc1	2%
COc1ccc(-c2nc3cc(C(C)C)ccc3o2)cc1NC(=O)c1cc(Cl)ccc1OC	i
COc1cc(OC)cc(C(=O)Oc2ccc3ccccc3c2)c1	i
Cc1ccc(-c2n[nH]c(=O)c3ccccc23)cc1S(=O)(=O)NC1CCCCC1	i
CC(C)NC(=O)c1ccc(COc2ccc(C(C)(C)C)cc2)o1	4%
COc1ccc(CCNS(=O)(=O)c2ccc(Br)s2)cc1	1%
Cc1ccc(S(=O)(=O)Nc2cc(S(N)(=O)=O)ccc2C)cc1	1%
COc1cccc(OC)c1OCCOc1cc(C)ccc1Cl	6%
CC(=O)c1cccc(NC(=O)C(C)Oc2cccc(Cl)c2)c1 (stereo not given)	4%
O=C1CC(c2cccs2)Cc2nc(NCc3ccccc3)ncc21 (stereo not given)	i
Cc1ccc(-c2cc(C(=O)NCC3CCCO3)no2)cc1 (stereo not given)	i
O=C(NCc1ccco1)C(=O)Nc1ccc(Cl)cc1	i
Cc1cc(C)nc(SC2=CS(=O)(=O)c3ccccc32)n1	i
CC(C)(C)c1ccc(CSc2nncc(=O)n2N)cc1	i
CCCSc1ncnc2sc3c(c12)CCCC3	i
COc1cc(Br)ccc1NC(=O)c1cccc([N+](=O)[O-])c1	i
Cn1c(CCCOc2ccc(Cl)cc2Cl)nnc1SCc1nc2ccccc2c(=O)[nH]1	i
Cn1c(SCC(=O)c2ccccc2)nc2ccccc21	0%
COC(=O)c1ccccc1NC(=O)CCC(=O)Nc1ccccc1C(=O)OC	i
O=C(CSc1nc(-c2ccccc2)nc2c1CCCC2)N1CCOCC1	i
COc1ccc(C)cc1N(CC(=O)Nc1cccc(Cl)c1)S(C)(=O)=O	i
COc1cccc(NC(=O)c2c(NC(=O)c3ccccc3Br)sc(C)c2C)c1	i
O=C(CS(=O)(=O)c1ccccc1)Nc1ccc(Oc2ccccc2)cc1	i
CCN1CCN(C(=S)Nc2cccc(OC)c2)CC1	i
COc1ccc(OC)c(C2C(C(=O)c3cccs3)=C(O)C(=O)N2Cc2cccnc2)c1 (stereo not given)	i
Cc1cccnc1NC(=O)Nc1ccc2c(c1)OCO2	i
COc1cc(-c2c(C#N)c(N)nc(SCc3ccc(Cl)c(Cl)c3)c2C#N)cc(OC)c1OC	i
COc1ccc(NC(=O)CC2NC3CCCCC3NC2=O)cc1 (stereo not given)	i
CCCN1CCC(NC(=S)Nc2ccc(S(N)(=O)=O)cc2)CC1	i
O=C(C(c1ccccc1)c1ccccc1)N1CCN(S(=O)(=O)c2ccccc2[N+](=O)[O-])CC1	2%
COC(=O)N1N=C(CC(C)C)CC1(O)C(F)(F)F (stereo not given)	i
CCOC(=O)c1ccc(N(C)S(=O)(=O)c2ccccc2)cc1	i
CC(NC(=O)c1ccc(N(C)S(C)(=O)=O)cc1)c1ccccc1 (stereo not given)	i
c1ccc(-c2ccc(-n3cnnn3)cc2)cc1	4%
CCOc1ccc(CNc2ccc(N3CCN(Cc4ccccc4)CC3)cc2)cc1	3%
CN(C(=S)NC(=O)c1ccccc1Br)C1CCCCC1	?
CCCc1cn(S(=O)(=O)c2ccc(OC)cc2OC)nc1N	3%
Cc1ccc(SCCNCCN2CCOCC2)cc1	i
Cc1cccc(NC(=S)NCCCOC(C)C)n1	0%
O=C(COc1ccccc1[N+](=O)[O-])N1c2ccccc2Sc2ccccc21	i
CC1CCN(S(=O)(=O)c2ccc(NC(=O)COc3ccccc3Cl)cc2)CC1	3%
Cc1ccc(-n2cnc3scc(-c4ccc(C)cc4C)c3c2=O)cc1	24%
Cc1ccc2nc(SCC(=O)O)cc(C)c2c1	i
O=C1C(Cl)=C(N2CCN(c3ccccc3)CC2)C(=O)N1C1CCCCC1	i
CCc1cccc(CC)c1NC(=O)CSc1nnc(Cc2cccc3ccccc23)n1C	2%
O=C(NC(=S)Nc1ccc2oc(-c3ccc(Cl)cc3)nc2c1)c1ccco1	i
Clc1ccc(N2CCN(N=Cc3cccnc3)CC2)cc1	i
CC(=O)Nc1ccc(S(=O)(=O)Nc2ccccc2C(=O)NCc2ccccc2)cc1	i
CCc1cc(C(=O)OC)c(NC(=S)Nc2ccc([N+](=O)[O-])cc2C)s1	i
CCOCCC(=O)N1CCc2ccccc21	5%
O=C(CSc1nc(-c2ccccc2)cc(=O)[nH]1)NCC1CCCO1 (stereo not given)	i
Cc1cc(C)c2c3c(sc2n1)C1(CCCCC1)C(C#N)=C(N)O3	i

Random excerpt: two records from the list
SMILES	Mtb H37Rv
CCc1cccc(CC)c1NC(=O)CSc1nnc(Cc2cccc3ccccc23)n1C	2%
COc1ccc(S(=O)(=O)N(CC(=O)Nc2cccnc2)c2cc(C)cc(C)c2)cc1OC	i

(cont.)
SMILES	Mtb H37Rv
NC(=O)COc1ccc(C2NC(=S)NC(c3ccccc3)=C2C(=O)c2ccccc2)cc1 (stereo not given)	i
CC(NC(=O)c1cccc(C(F)(F)F)c1)C1CCCO1 (stereo not given)	1%
CC(C)(CNC(=O)c1ccccc1Cl)CNC(=O)c1ccccc1Cl	i
Cc1ccc(S(=O)(=O)NCCNc2ccccc2[N+](=O)[O-])cc1	i
O=C(NC(=S)Nc1ccc(I)cn1)c1cc2ccccc2o1	i
NC(=O)c1ccccc1NC(=O)c1ccc(-c2cc(Cl)ccc2Cl)o1	i
Cc1ccccc1C(=O)Nc1cccc(-c2nnc(SCC(=O)N3CCc4ccccc43)n2C)c1	i
FC(F)(F)c1ccccc1NC(=S)Nc1nn(Cc2ccc(Cl)c(Cl)c2)cc1Br	37%
CCN1CCN(c2nc3c(c(=O)n(C)c(=O)n3C)n2CCSc2nnc(C)s2)CC1	i
CC(=O)Oc1ccc(C(=O)Nc2cc(Cl)c(O)c(Cl)c2)cc1	i
COc1cc(CNC(C)(C)C)ccc1OCCO	i
CCOC(=O)N1CCN(C(=O)Nc2ccccc2)CC1	i
CCSc1nc2c(c(=O)n(C)c(=O)n2C)n1Cc1ccccc1F	i
CCCn1nnc(NC(=O)c2cccc(Cl)c2Cl)n1	i
S=C(NCCc1ccncc1)NC1CCCCC1	i
Cc1ccc(C)c(NC(=O)CN(c2ccc(Cl)cc2)S(C)(=O)=O)c1	i
COc1ccc(CCNCc2ccccc2Cl)cc1	2%
CS(=O)(=O)Nc1ccc(C(=O)N2CCCCC2)cc1	i
CCOc1ccc(CCNC(=O)Nc2cccc(OC)c2)cc1OCC	1%
COc1cc(OC)c(NC(=O)c2c(C)noc2C)cc1Cl	i
CCOc1ccccc1C(=O)Nc1ccccc1CC	3%
O=C(COc1ccccc1)Nc1ccc(I)cc1	26%
O=C1C2CC=CCC2C(=O)N1c1n[nH]c(-c2ccco2)n1 (stereo not given)	i
CSc1ncc(Cl)c(C(=O)Nc2cccnc2)n1	6%
O=C(Cc1ccccc1)Nc1ccc(NC(=S)NC(=O)c2ccco2)cc1	24%
COc1ccc(-c2csc(NC(=S)NC(=O)c3cccc([N+](=O)[O-])c3C)n2)cc1OC	i
COC(=O)NCCOc1cc(C)ccc1C	i
C=CCNC(=S)Nc1ccc(F)cc1	i
CN(C)CCOCCOc1ccc(Cl)c(Cl)c1	i
CN(C(=O)c1cccc(N)c1)c1ccccc1	i
O=C(O)c1ccccc1-c1ccccc1C(=O)Nc1ccc(Br)cn1	i
COc1cccc(CN2CCN(C3CCC(C)CC3)CC2)c1OC (stereo not given)	i
COc1ccc(CCNC(=O)c2cccs2)cc1OC	2%
Cc1ccc(NC(=S)NCc2ccccc2)cc1C	25%
Cc1cccc(-c2nnc(-c3ccc(N)cc3)o2)c1	i
COC(=O)c1noc(-c2ccc(C)cc2)n1	i
O=C(O)c1ccc(NS(=O)(=O)c2ccc(F)cc2)cc1O	i
CC(C)N1CCN(C(=O)c2ccc([N+](=O)[O-])cc2)CC1	i
O=C(N/N=C/c1cc2c(cc1Cl)OCO2)/C(=C\c1ccc2c(c1)OCO2)NC(=O)c1ccccc1	i
N#CC(c1ccc(OCc2ccccc2)cc1)N(Cc1ccccc1)C(=O)c1ccccc1 (stereo not given)	i
COc1cc(CO)c(Br)cc1OCc1ccc([N+](=O)[O-])cc1	11%
COc1ccccc1C(NC(=O)CC(C)C)c1c(O)ccc2ccccc12 (stereo not given)	i
COc1ccc(CSCC(N)C(=O)O)cc1Br (stereo not given)	0%
CCN(CC)C(=O)CSc1nc2nc(C)cc(C)c2c(=O)[nH]1	i
Cc1c(NC2=CC(=O)CCC2)c(=O)n(-c2ccccc2)n1C	i
O=c1[nH]c(SCCOc2ccccc2F)nc2ccccc12	i
C=C(C)COc1ccc2c(C)c(CC(=O)OC)c(=O)oc2c1C	7%
CCOc1cc(/C=C\c2[nH]c(=O)[nH]c(=O)c2[N+](=O)[O-])cc(Cl)c1OCc1ccc(Cl)cc1	i
CCOc1ccccc1NC(=O)CSc1nnc(NC(=O)CC)s1	i
Cc1ccc(-c2nnc(SCc3ccccc3Cl)o2)cc1	i
CCCC(=O)Nc1c(C)cccc1CC	i
CCOC(=O)c1c(-c2ccccc2)csc1NC(=O)CSc1nnc(C)s1	0%
COCCNC(=O)COc1ccc(C)cc1C(C)(C)C	i
Cc1c(C)n(C(=O)CN2CCC(C(N)=O)CC2)c2ccccc12	3%
CCC(C)Cc1nc(N)c(C#N)c(-c2ccc(N(C)C)cc2)c1C (stereo not given)	i
O=C(Nc1cc(Cl)ccc1Cl)c1ccc(CN2CCc3ccccc3C2)cc1	i
O=C(C1CCN(S(=O)(=O)c2ccc(F)cc2)CC1)N1CCc2ccccc2C1	0%
CCC(=O)Nc1cccc2ncccc12	8%
CCCOc1cccc(OCCSc2nc(C)cc(=O)[nH]2)c1	3%
S=C(Nc1ccccc1Cl)c1nc2ccccc2s1	1%
Following part
SMILES	Mtb H37Rv
CC(C)NCC(O)COCc1ccc(Cl)cc1 (stereo not given)	1%
Cc1cc(C=O)c(C)n1Cc1ccccc1	i
Cc1cccc(C(=O)NC(=S)N2CC(C)OC(C)C2)c1 (stereo not given)	37%
O=C(Cn1c(=O)oc2ccccc21)Nc1ccc(Br)cc1	i
CC(=O)c1ccc(COC(=O)c2ccc([N+](=O)[O-])cc2Cl)cc1	41µg/mL*
COCCN1C(=O)c2oc3ccc(F)cc3c(=O)c2C1c1ccc(OCC(N)=O)cc1 (stereo not given)	i
CCNS(=O)(=O)c1ccc(NC(=S)NCc2ccco2)cc1	i
Cc1nn(C)c(C)c1NC(=S)NC1CCCC1	i
COc1ccccc1C(=O)NCCOc1ccc(C(C)(C)C)cc1	?
COC(=O)c1sc2c(Cl)c(OC)ccc2c1Cl	i
COc1ccc(-c2c(C)n([O-])c3c([n+]2=O)CCCCC3)cc1OC	1%
CCOC(=O)c1cnc2c(CC)cccc2c1NCCO	i
CC(NC(=O)c1ccc(N2CCCC2)c([N+](=O)[O-])c1)C12CC3CC(CC(C3)C1)C2 (stereo not given)	i
COc1cc(C2NC(=O)NC(C)=C2C(=O)c2ccccc2)cc(Br)c1O (stereo not given)	i
Cc1ccc(Cl)cc1N1C(=O)CC(N2CCN(c3ccc(F)cc3)CC2)C1=O (stereo not given)	6%
CCCCN1C(=O)C2ON(c3ccc(Cl)cc3)C(c3cccc([N+](=O)[O-])c3)C2C1=O (stereo not given)	i
COC(=O)c1ccc(Cl)c(NC(=O)c2ccc(OC)cc2)c1	i
N#Cc1c(N)sc2c1CC(c1ccccc1)SC2c1ccccc1 (stereo not given)	7%
O=C(c1cccc2ccccc12)N1CCCCCC1	2%
COc1ccc(C(CC(=O)c2ccccc2)Nc2ccccc2)cc1 (stereo not given)	3%

21 compounds already listed, ordered by heavy-atom count, lowest first.
SMILES	Mtb H37Rv
C=CCNC(=S)Nc1ccc(F)cc1	i
CCCC(=O)Nc1c(C)cccc1CC	i
COC(=O)NCCOc1cc(C)ccc1C	i
c1ccc(-c2ccc(-n3cnnn3)cc2)cc1	4%
Cc1cccc(NC(=S)NCCCOC(C)C)n1	0%
COc1ccc(CCNCc2ccccc2Cl)cc1	2%
CCOc1ccccc1C(=O)Nc1ccccc1CC	3%
CCOC(=O)c1cnc2c(CC)cccc2c1NCCO	i
COc1cc(CO)c(Br)cc1OCc1ccc([N+](=O)[O-])cc1	11%
CC(C)NC(=O)c1ccc(COc2ccc(C(C)(C)C)cc2)o1	4%
N#Cc1c(N)sc2c1CC(c1ccccc1)SC2c1ccccc1 (stereo not given)	7%
COc1ccc(C(CC(=O)c2ccccc2)Nc2ccccc2)cc1 (stereo not given)	3%
CCOc1ccc(CCNC(=O)Nc2cccc(OC)c2)cc1OCC	1%
CCOC(=O)c1c(-c2ccccc2)csc1NC(=O)CSc1nnc(C)s1	0%
COc1cccc(NC(=O)c2c(NC(=O)c3ccccc3Br)sc(C)c2C)c1	i
FC(F)(F)c1ccccc1NC(=S)Nc1nn(Cc2ccc(Cl)c(Cl)c2)cc1Br	37%
CC(=O)Nc1ccc(S(=O)(=O)Nc2ccccc2C(=O)NCc2ccccc2)cc1	i
C=CCc1ccc(OCc2ccc(C(=O)Nc3ccc(NC(C)=O)cc3)o2)c(OC)c1	i
CCc1cccc(CC)c1NC(=O)CSc1nnc(Cc2cccc3ccccc23)n1C	2%
O=C(C(c1ccccc1)c1ccccc1)N1CCN(S(=O)(=O)c2ccccc2[N+](=O)[O-])CC1	2%
COc1ccc(N(CC(=O)N2CCC(Cc3ccccc3)CC2)S(=O)(=O)c2ccc(F)cc2)cc1	1%

New compounds follow.
SMILES	Mtb H37Rv
COc1ccc(-c2csc3ncn(-c4cccc(Cl)c4)c(=O)c23)cc1OC	i
Cc1ccccc1CSc1nnc(C)c(=O)[nH]1	i
O=c1c2ccccc2nc(/C=C/c2ccc(Br)cc2)n1CCCO	28%
CC1(C)CC(O)(CNCc2cccs2)CCO1 (stereo not given)	i
